gsp agonist: qHTS for Agonist of gsp, the Etiologic Mutation Responsible for Fibrous Dysplasia/McCune-Albright Syndrome: qHTS; gsp mutant cells, cAMP HTRF, 30 min; control for the full effect not named in the record; Potency, µM (titrated, usually from 76.9 µM), for the others: at the highest dose activation (cAMP increase), actives largely listed as activators; actives 0.13% (n = 340,000); AID 624287, 2012; active = well fitted activation curve with a large enough effect; inconclusive = small, poorly fitted or top-dose-only effect, or another doubt; inactive = no such curve, though single readings can be large or run the other way; cell line not stated here;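 note: phosphodiesterase inhibitor Ro 20-1724 added with compounds to block cAMP breakdown; potency is the fitted concentration of half-maximal effect; nearly all actives have a fitted effect of over 60% in size; about a fifth of the inactives were tested at one dose only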
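Cells stably selected in G418 were plated at 2000/well, grown 16-24 hr, then given compounds in DMSO with the PDE inhibitor […] (300 uM solution added) for 30 min at 37C; cAMP was read by HTRF.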
TRPML1 inh: qHTS for Inhibitors of the Human Mucolipin Transient Receptor Potential 1 (TRPML1). AID 624415, 2012. activity change, negative = inhibition, % (test concentration not listed). TRPML1-inducible cells, Ca2+ dye fluorescence, FDSS; active compounds read low; inhibition of EC80 agonist-evoked calcium signal. actives 0.02% (n = 390,000); in the data active means activity change below about -50%; inconclusive means about -30% to -50%; inactive means above about -30%;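 note: stimulus is agonist 54-4 at its EC80 concentration; % is set by controls: 0 for no effect and ±100 for the full control effect; compound concentration not given in the record; the text of the record puts the active cut at -80%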
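Calcium fluorescence in TRPML1-DL cells induced overnight with Tet: a 110 s read after compound pin addition, then a 110 s antagonist read after challenge with 54-4 at 4 uM final (EC80).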
gsp antag: qHTS for Antagonists of gsp, the Etiologic Mutation Responsible for Fibrous Dysplasia/McCune-Albright Syndrome: qHTS. gsp-mutant cells, cAMP HTRF, 30 min; control for the full effect not named in the record. Potency, µM (doses to about 76.9 µM), for the others: at the top dose activity change, negative = inhibition, actives largely listed as inhibitors. actives 0.4% (n = 340,000); active = falling curve of any shape with a large fitted effect; inconclusive = falling curve, mostly with a smaller effect; inactive = flat or rising curve; cell line not stated here;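 note: intracellular cAMP measured with PDE inhibitor Ro 20-1724 present during compound exposure; potency is the fitted concentration of half-maximal effect; % is set by controls: 0 for no effect and ±100 for the full control effect; nearly all actives have a fitted effect of over 65% in size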
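G418-selected cells were plated in DMEM/10% FBS for 16-24 h at 37C, then treated with compounds plus the PDE inhibitor […] (300 uM solution added) for 30 min at 37C. Intracellular cAMP was measured by HTRF after 30 min lysis at room temperature.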
ClpP mod: qHTS Assay for Activators of ClpP; ATP-dependent Clp protease proteolytic subunit (Bacillus subtilis (strain 168)), P80244; purified B. subtilis ClpP, FRET peptide cleavage, 20 min; Potency, µM (doses to about 57.5 µM), for inactives: at the top dose activity change, negative = active; actives 1.9% (n = 340,000); active = well fitted falling curve with a large enough effect; inconclusive = small, poorly fitted or top-dose-only effect; inactive = no such curve, though single readings can be large or run the other way; note: potency is the fitted concentration of half-maximal effect; the source files actives as falling curves though it sought activators and does not explain the sign; nearly all actives have a fitted effect of over 65% in size; many hits overshoot -100%
Target sequence (P80244 whole entry, looked up): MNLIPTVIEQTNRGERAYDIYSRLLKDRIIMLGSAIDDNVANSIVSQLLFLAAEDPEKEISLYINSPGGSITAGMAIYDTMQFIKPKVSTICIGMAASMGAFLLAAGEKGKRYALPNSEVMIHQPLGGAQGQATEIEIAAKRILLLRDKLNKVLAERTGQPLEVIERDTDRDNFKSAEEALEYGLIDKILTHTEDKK
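ClpP 10 microg/mL final, pH 8 Tris/KCl buffer with BSA, glycerol, Tween-20; compound pinned in; FRET-FV substrate; RT 20 min; Ex320/Em430; ΔFRET vs ADEP 5.8 microM, DMSO, no enzyme.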
Menin-MLL FL inh: qHTS Assay for Inhibitors Targeting the Menin-MLL Interaction in MLL Related Leukemias: Competition With Fluorescein Labeled MLL-derived Peptide; FP activity change, % at 61.4 µM; AID 1766, 2009; 290,000 tested, under 10 active; Fluorescence polarization, fluorescein-MLL peptide displacement from menin; inconclusive = falling polarisation curve, or a change in total fluorescence; inactive = total fluorescence flat and polarisation flat or rising; no compound was filed as active; the % refers to the polarisation; negative = inhibition;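 note: % of control where 0% means no effect; inhibitors lower the polarisation; unlabelled MLL peptide was the positive control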
Sfp inh: qHTS Assay for Inhibitors of Bacillus subtilis Sfp phosphopantetheinyl transferase (PPTase) | Biochemical Sfp PPTase activity, qHTS | 4'-phosphopantetheinyl transferase ffp (Bacillus subtilis), Q9F4F7 | Potency, µM, for inactives: max response, negative = inhibition, most hits filed as inhibitors | AID 1490, 2009 | actives 3.5% (n = 310,000); active = well fitted inhibition curve with a large enough effect; inconclusive = small, poorly fitted or top-dose-only effect, or another doubt; inactive = no such curve, though single readings can be large or run the other way;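 note: the enzyme is Sfp with the accession as filed and its product quenches rhodamine fluorescence; potency is the fitted concentration of half-maximal effect; 0% = enzyme reaction without inhibitor and -100% = no enzyme wells; top concentration of the series not given in the record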
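Reaction rates are the 30-min fluorescence difference (ex 525, em 598 nm) in wells containing 15 nM Sfp, 5 uM rhodamine-CoA and 12.5 uM BHQ-2-YbbR at pH 7.6 with 10 mM MgCl2.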
TRPV1 potentiator: HTS Assay for Compounds that Act as Potentiators of the Vanilloid Receptor 1; AID 540277, 2011; TRPV1-expressing cells, Fluo-8 calcium influx, capsaicin EC20 potentiation; host cell line not named in the record; control for the full effect not named in the record; potentiation, % at 8.33 µM; actives 0.02% (n = 320,000); Transient receptor potential cation channel subfamily V member 1 (Homo sapiens), Q8NER1; active means potentiation above 80%; inconclusive means 30% to 80%; inactive means below 30%; note: 0% is about no effect
Target sequence (Q8NER1 whole entry, looked up): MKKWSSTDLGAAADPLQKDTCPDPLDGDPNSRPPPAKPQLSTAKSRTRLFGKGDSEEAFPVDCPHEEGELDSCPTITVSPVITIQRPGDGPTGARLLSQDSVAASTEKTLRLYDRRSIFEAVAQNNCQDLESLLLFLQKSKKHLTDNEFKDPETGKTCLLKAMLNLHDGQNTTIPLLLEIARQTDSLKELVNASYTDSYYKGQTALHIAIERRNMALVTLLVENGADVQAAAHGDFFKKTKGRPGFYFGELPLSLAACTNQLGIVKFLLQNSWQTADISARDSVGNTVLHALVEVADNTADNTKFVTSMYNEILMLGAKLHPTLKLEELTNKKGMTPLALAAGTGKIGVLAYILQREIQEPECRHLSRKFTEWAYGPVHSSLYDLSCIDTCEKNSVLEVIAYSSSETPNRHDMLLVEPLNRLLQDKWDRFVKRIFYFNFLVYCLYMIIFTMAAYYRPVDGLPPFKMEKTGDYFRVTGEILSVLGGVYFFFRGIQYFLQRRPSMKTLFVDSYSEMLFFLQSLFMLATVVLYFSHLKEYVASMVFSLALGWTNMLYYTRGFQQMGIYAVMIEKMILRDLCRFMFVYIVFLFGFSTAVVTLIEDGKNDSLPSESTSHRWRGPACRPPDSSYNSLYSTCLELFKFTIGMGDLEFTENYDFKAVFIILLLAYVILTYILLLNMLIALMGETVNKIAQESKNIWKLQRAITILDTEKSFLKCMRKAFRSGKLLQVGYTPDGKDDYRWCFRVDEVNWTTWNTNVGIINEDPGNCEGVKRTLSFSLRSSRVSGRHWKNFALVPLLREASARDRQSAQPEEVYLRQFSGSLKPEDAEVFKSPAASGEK
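Fluo-8 calcium influx in TRPV1-expressing cells, kinetic read (ex 480/em 520 nm). Compound added and read 3 min for agonist activity, followed by capsaicin at EC20 final and 2 min further read for enhancement.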
An asterisk follows results filed as active; ? = inconclusive; · = no result given; & = joins results of further samples; [ ] = another dose, or the depositor's remark. The order is random (roughly 4.9% active in at least one column).

SMILES	gsp agonist	TRPML1 inh	gsp antag	ClpP mod	Menin-MLL FL inh	Sfp inh	TRPV1 potentiator
Cn1c(SCC(=O)OCc2ccccc2)nnc1-c1ccco1	2.2%	7.3	12.7%	0.7%	3.3	4.0%	27.4
O=C1N=C(N2CCN(c3ccccc3)CC2)S/C1=C/c1ccco1	-0.9%	-3.6	-17.9%	-0.7%	?	-6.2%	-13.1
CCn1c(COc2ccccc2)nnc1SCC(=O)Nc1cc(OC)ccc1OC	13.9%	1.3	-13.1%	1.6%	-1.0	5.6%	·
CC(C)(C)OC(=O)N1CCOCCOCCN(C(=O)OC(C)(C)C)CCOCC1	-29.8%	-16.8	0.2%	-2.5%	-2.1	2.5%	-10.4
CC(=O)N1CCN(C(=O)CCc2c[nH]c3ccccc23)CC1	-7.2%	28.1	-11.8%	-1.6%	0.8	11.3%	0.3
COc1ccccc1CCNC(=O)c1cc(-c2ccccn2)nc2ccc(Br)cc12	·	·	·	·	5.5	-19.7%	-2.8
O=C1C2CCCN2C(=S)N1Cc1ccccc1 (configuration not stated)	-1.9%[15.4 µM]	-8.4	9.4%	?	-0.6	-6.4%	10.6
O=C(Nc1ccccc1Br)c1cc[n+]([O-])cc1	3.8%	12.4	2.2%	·	0.2	10.4%	5.7
O=C(O)C(=O)Nc1ccc(NC(=O)C(c2ccccc2)c2ccccc2)cc1	-15.1%[15.4 µM]	6.7	11.0%	·	3.5	-7.5%	2.3
COC(=O)c1ccc(C2/C(=C(/O)c3ccc4c(c3)CC(C)O4)C(=O)C(=O)N2Cc2ccncc2)cc1 (configuration not stated)	?	4.3	-1.9%	-3.2%	·	15.2%	16.9
COc1ccc(OCc2nc(N)nc(Nc3ccc(C)cc3)n2)cc1	-29.0%	-1.7	8.9%	6.8%	-0.9	25.7%	-10.1
O=C(CS)Nc1ccc2ccccc2c1	-8.8%[15.4 µM]	-9.2	4.9%	-0.6%	·	?	10.8
O=C(COC(=O)CNC(=O)c1ccccc1)Nc1ccc(F)c([N+](=O)[O-])c1	1.0%	-14.3	-2.4%	·	0.2	-11.7%	-9.2
CCN(CC)C(NC(=O)Cc1ccccc1)C(Cl)(Cl)Cl (configuration not stated)	25.1%	6.8	5.8%	-0.2%	-4.2	3.0%	6.9
CCOC(=O)c1[nH]c(=O)[nH]c1COC(=O)c1cc2ccccc2o1	12.7%	49.0	1.3%	-24.7%	-1.0	19.4%	-6.5

2 successive entries out of the list so far:
SMILES	gsp agonist	TRPML1 inh	gsp antag	ClpP mod	Menin-MLL FL inh	Sfp inh	TRPV1 potentiator
CCn1c(COc2ccccc2)nnc1SCC(=O)Nc1cc(OC)ccc1OC	13.9%	1.3	-13.1%	1.6%	-1.0	5.6%	·
CC(C)(C)OC(=O)N1CCOCCOCCN(C(=O)OC(C)(C)C)CCOCC1	-29.8%	-16.8	0.2%	-2.5%	-2.1	2.5%	-10.4

(continued)
SMILES	gsp agonist	TRPML1 inh	gsp antag	ClpP mod	Menin-MLL FL inh	Sfp inh	TRPV1 potentiator
CCOC(=O)c1c(C)[nH]c(C(=O)COC(=O)/C=C/c2cccc(OC)c2OC)c1C	?	12.5	0.6%	-15.7%	4.0	16.7%	5.8
CCn1c(O)c(/C=C/C=C/C=Nc2ccccc2)sc1=S	-10.8%	84.0	0.9%	·	?	?	-0.7
O=C(Nc1ccc(F)cc1)C1CCC(CNc2c(N3CCCCC3)c(=O)c2=O)CC1 (configuration not stated)	19.0%	19.7	-0.1%	1.0%	1.2	10.5%	23.2
CCOC(=O)N1CCC(NC(=O)Cn2c3c(c(-c4ccccc4Cl)cc2=O)CCC3)CC1	-1.5%	-7.2	-0.4%	3.6%	4.4	-2.3%	15.1
CCNc1nc(NC(C)C)nc(ON=C(C)C)n1	·	·	·	·	6.4	18.0%	-0.6
Cc1c(C(=O)OCC(=O)c2ccc3c(c2)OCCO3)oc2ccccc12	-36.5%	2.7	-9.8%	4.1%	12.0	-4.3%	6.2
Cc1csc(NC(=O)CSc2nnnn2C)n1	6.8%	-12.4	11.2%	-2.8%	0.5	9.3%	1.3
O=C1CCC(=O)N1CC(=O)N(c1ccccc1)c1ccccc1	0.2%[15.4 µM]	0.2	-5.0%	·	-6.7	4.3%	5.6
CCOC(=O)c1c(C)[nH]c(C(=O)COC(=O)c2cnc(C)cn2)c1C	-26.0%	-9.6	6.0%	0.1%	-1.9	7.4%	-2.6
COC(=O)[C@@]1(Cc2ccc(F)cc2)[C@H]2c3cc(C(=O)N4CCCC4)n(CCc4ccc(OC)c(Br)c4)c3C[C@H]2CN1C(=O)c1ccccc1	·	·	·	-2.2%	3.0	13.2%	·
O=C(CN1C(=O)c2cccnc2Oc2ccc(Cl)cc21)NCCC1=CCCCC1	-9.5%	-0.1	-11.9%	0.7%	·	3.9%	-23.5
CC1(C(=O)NCCc2c[nH]c3ccccc23)C=CCN1C(=O)c1ccccc1 (configuration not stated)	?	7.1	0.3%	-0.6%	0.4&-0.5	-7.0%&19.0%	?
CCCCN(C(=O)NC(=O)C1=C(N2CCOCC2)/C(=C/c2ccccc2)CC1)S(C)(=O)=O	-2.2%	11.2	-11.0%	45.6%	1.8	-2.9%	-9.5
Cc1cc(N2CCN(c3ccccc3Cl)CC2)n2cc(-c3ccccc3)nc2n1	-47.7%[inhibitor]	-2.7	?	14.1µM*	3.6	?	7.6
C=CCn1c(SCC(=O)Nc2c(C)n(C)n(-c3ccccc3)c2=O)nc2ccccc2c1=O	-12.9%	24.0	-9.2%	0.7%	·	·	11.5
O=C(NN=CC=Cc1ccccc1)C(O)C(O)C(=O)NN=CC=Cc1ccccc1 (configuration not stated)	0.6%	-7.7	8.9%	-0.9%	·	·	·
CCCNC(=O)c1cccc(Cn2cc(Br)c([N+](=O)[O-])n2)c1	-5.7%	30.0	3.8%	0.5%	0.1	9.2%	1.3
O=C(NCCc1ccccc1)C(c1ccccc1)N(C(=O)c1csnn1)C1CC1 (configuration not stated)	11.2%[15.4 µM]	31.9	-6.0%	·	2.9	3.0%	-1.8
S=C(NCCSCc1ccccc1Cl)Nc1ccccc1	-25.1%	-1.8	-10.8%	-1.5%	-0.6	5.7%	-0.7
CCOc1cc(C(=O)OCC(=O)Nc2cc(C)on2)cc(OCC)c1OCC	-11.3%	-10.0	0.1%	-1.6%	3.4	-0.1%	-0.3
CC1CCCCC1NC(=O)Cn1c(=O)oc2cc(S(=O)(=O)N3CCCC3)ccc21 (configuration not stated)	7.5%	10.6	-2.2%	-1.4%	-3.0	10.4%	-32.0
COC(=O)Cc1ccc(NC(=S)NCCSc2ccc(C)cc2)cc1	?	33.1	-18.3%	-3.5%	4.4	-4.5%	-22.6
COc1cccc(NC(=S)N2CCc3cc(OC)c(OC)cc3C2)c1	14.4%[15.4 µM]	-4.1	-8.1%	·	0.8	19.0%	2.3
Cc1cc(N/N=C2\CC(C)CC(C)(C)C2)nc2ccccc12 (configuration not stated)	-25.7%	-6.1	8.8%	-27.3%	-4.7	2.4%	-5.1
O=C(COC(=O)c1c[nH]c2ccccc12)NCc1ccccc1	-79.5%[inhibitor]	-7.1	·	-0.8%	·	·	·
CCOC(=O)c1nnn(-c2nonc2-n2cccc2)c1CN1CCC(C)CC1	-15.8%	70.8	?	-1.6%	4.4	-4.3%	-4.7
COC(=O)c1ccccc1NC(=O)c1cnn2c(C(F)F)cc(C3CC3)nc12	-21.6%	4.5	1.6%	-14.1%	-2.5	-0.2%	12.6
Cc1cccc(CN2CCN(C(C)C(=O)NC(C)c3ccccc3)CC2)c1 (configuration not stated)	11.7%	0.2	7.8%	·	-17.3	63.1µM*	-26.9
C#CCOCCOCCOCCNc1nc(N2CCN(C(=O)[C@H]([C@@H](C)CC)n3cc([C@@H](N)Cc4ccc(O)cc4)nn3)CC2)nc(N2CCN(C(=O)[C@H]([C@@H](C)CC)n3cc([C@@H](N)CC(C)C)nn3)CC2)n1	-17.0%	14.6	3.1%	-2.1%	-2.4	-29.0%	-3.6
CC1(C)CC(=O)c2c(O)cc(O)cc2O1	0.9%	0.3	7.4%	-0.2%	0.3	-13.5%	-4.9
Cc1c(Br)c([N+](=O)[O-])nn1CC(=O)Nc1sc2c(c1C(=O)OC(C)C)CCC(C)C2 (configuration not stated)	?	-9.1	18.6%	-0.8%	4.5	5.1%	-2.9
Cc1cc(C)c2c3c(sc2n1)C(c1ccccc1)C(C#N)=C(N)O3 (configuration not stated)	24.7%	8.6	2.8%	?	-0.3	-17.1%	-14.4
CCCOc1ccc(N2C(=O)CC(N(Cc3ccccc3)N=O)C2=O)cc1 (configuration not stated)	0.9%[15.4 µM]	4.4	-3.3%	-0.8%	5.3	14.5%	-8.0
CCOc1ccc(-c2nn(-c3ccccc3)cc2/C=C2\SC(=S)N(Cc3ccco3)C2=O)cc1	-13.8%	-21.3	10.2%	?	2.3	0.9%	3.0
O=C(CN1CCN(S(=O)(=O)N2CCOCC2)CC1)Nc1cc(Cl)cc(Cl)c1	11.7%[15.4 µM]	6.0	2.0%	-1.5%	-1.7	-1.1%	6.2
CCN(CC(=O)NCc1cccs1)S(=O)(=O)c1ccc(F)cc1	-20.7%[15.4 µM]	-12.1	4.1%	-1.0%	·	·	1.4
CC(C)c1cc(C(C)C)c(S(=O)(=O)N2CCNCC2)c(C(C)C)c1	2.3%	10.4	10.2%	·	·	·	·
C=C1CSc2nc3ccccc3c(=O)n21	?	-2.9	10.1%	?	5.5	8.7%	-0.6
CCOC(=O)CC(=O)Nc1cc2ccc(OC)c(OC)c2cc1C(=O)OCC	1.7%	24.6	·	-23.2%	·	·	·
Cc1ccccc1NC(=S)Nc1cccc([N+](=O)[O-])c1	-29.4%	26.8	10.0%	-3.1%	4.6	10.3%	-5.6
